Assay outcomes: PubChem, National Center for Advancing Translational Sciences (NCATS)
TsaE inh: qHTS Assay for Inhibitors of YjeE. purified YjeE, fluorescence polarisation of a bound ADP probe. Potency, µM. tRNA threonylcarbamoyladenosine biosynthesis protein TsaE (Escherichia coli (strain …. 0.05% of 71,000 active; active = well fitted falling curve; inconclusive = weaker or top-dose-only fall, or a rising curve; inactive = flat or poorly fitted curve;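 also: top concentration of the series not given in the record; excess ADP was the control for the full effect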
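Fluorescence polarization of a BODIPY Texas Red–ADP probe (2 uM) bound to purified YjeE (10 uM) was read after 15 min room-temperature incubation with compounds. Loss of polarization marks inhibitors; ADP serves as titrated control.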
Bst PK mod: Pyruvate Kinase. partly purified Bacillus stearothermophilus pyruvate kinase, luminescence ATP production; ribose 5-phosphate activator present at AC10. Potency, µM. 1.2% of 51,000 active; in the data active means potency below about 11 µM; inconclusive means mostly about 12 µM to 25 µM; inactive means weaker than that;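 the screen sought inhibitors and activators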;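 also: potency is read from the fitted curve at half-maximal effect; scaled between full activation by ribose 5 phosphate and full inhibition by luteolin; about four in five hits inhibit and the cells do not say which; series up to 57 µM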
Active calls of the source: *; i = inactive; ? = inconclusive; . = not tested or not shown.

No. | Compound | TsaE inh | Bst PK mod
1 | Cc1nc2c(-c3ccccc3)c(C)nn2c(C)c1CCC(=O)N1CCC2(CC1)OCCO2 | i | >57
2 | COC1=CC(=O)O[C@@H](/C=C\c2ccccc2)C1 | i | .
3 | COc1ccc(C=O)cc1OC | i | .
4 | C[C@H]1CC[C@@]2(NC1)O[C@@H]1C[C@@H]3[C@@H]4CC=C5C[C@@H](O)CC[C@]5(C)[C@@H]4CC[C@]3(C)[C@H]1[C@@H]2C | i | .
5 | CCC(=NCc1cccnc1)c1c(O)n(C2CCCCC2)c(=O)[nH]c1=O | i | .
6 | c1csc(CN2CC3(CCNCC3)C2)n1 | i | .
7 | Cc1ccc(N2C(=O)NC(=O)C3(Cc4ccccc4N4CCCC43)C2=O)cc1 (stereo not drawn) | i | >57
8 | O=Cc1ccc2c(c1)OCO2 | i | .
9 | CCOCCOC(C)=O | i | .
10 | Cc1ccc(N)c(C)c1 | i | .
11 | Nc1c(C(=O)NCCN2CCOCC2)c2nc3ccccc3nc2n1Cc1ccco1 | i | .
12 | CCCN(C/C=C\I)[C@@H]1CCc2ccc(O)cc2C1 | i | .
13 | N[C@@]1(C(=O)O)CC[C@H](C(=O)O)C1 | i | .
14 | Cc1ccc(C2SCC(=O)Nc3c2c(=O)[nH]n3C2CCOC(C)(C)C2)cc1 (stereo not drawn) | i | >57
15 | COC1=CC(=O)OC(CCc2ccccc2)C1 (stereo not drawn) | i | .
16 | CC(=O)N(C1=NCCCS1)c1ccc(F)cc1 | i | >57
17 | CNCCc1c[nH]c2ccccc12 | . | >26
18 | CC[C@H](CO)NC(=O)[C@H]1C=C2c3cccc4[nH]cc(c34)C[C@H]2N(C)C1 | i | .
19 | O=C(Nc1ccc2c(c1)OCO2)c1cn(Cc2ccc(F)cc2)nn1 | i | >57
20 | NC[C@@H](Cc1ccccc1)P(=O)(O)O | i | .
21 | CCCS(=O)(=O)N1CCCC(C(=O)N2CCC3(CC2)OCCO3)C1 (stereo not drawn) | i | >57
22 | C=CCN1C(=O)C2(C(C(=O)OCC)=C(N)Oc3c2c(=O)oc2ccccc32)c2ccccc21 (stereo not drawn) | i | >57
23 | C[C@@]1([C@@H](NP(=O)(c2ccccc2)c2ccccc2)c2ccccc2)C[C@H]1CCO | i | .
24 | CC(C)NC(=O)N1CCC2(CC1)CCN(C(=O)Oc1ccccc1)CC2 | i | .
25 | CC(C)=CCC12CN3CCN(CC(C3)C1=O)C2 | i | >57
26 | N#CC(Cl)(Cl)Cl | i | .
27 | C=Cn1ccnc1P(=S)(c1ccc(N(C)C)cc1)c1nccn1C=C | i | .
28 | CCC(=NC1CC1)c1c(O)n(C2CCCCC2)c(=O)[nH]c1=O | i | .
29 | C=C[C@H]1CN2CC[C@@H]1C[C@H]2[C@@H](O)c1ccnc2ccccc12 | i | .
30 | Cn1c(O)c(C=NCCCN2CCCC2=O)c(=O)n(C)c1=O | i | >57

A draw from above in order of SMILES length, ascending:
No. | Compound | TsaE inh | Bst PK mod
6 | c1csc(CN2CC3(CCNCC3)C2)n1 | i | .
12 | CCCN(C/C=C\I)[C@@H]1CCc2ccc(O)cc2C1 | i | .
5 | CCC(=NCc1cccnc1)c1c(O)n(C2CCCCC2)c(=O)[nH]c1=O | i | .
29 | C=C[C@H]1CN2CC[C@@H]1C[C@H]2[C@@H](O)c1ccnc2ccccc12 | i | .
1 | Cc1nc2c(-c3ccccc3)c(C)nn2c(C)c1CCC(=O)N1CCC2(CC1)OCCO2 | i | >57

2 entries picked at random from those above:
No. | Compound | TsaE inh | Bst PK mod
7 | Cc1ccc(N2C(=O)NC(=O)C3(Cc4ccccc4N4CCCC43)C2=O)cc1 (stereo not drawn) | i | >57
8 | O=Cc1ccc2c(c1)OCO2 | i | .

The list goes on.
No. | Compound | TsaE inh | Bst PK mod
31 | CC1(C)CC(=O)C=C(NCCN2CCN(C(=O)Cc3ccc(Cl)cc3)CC2)C1 | i | >57
32 | NC(=S)Nc1ccccc1 | i | .
33 | O=C(O)c1nn(Cc2ccc(Cl)cc2Cl)c2ccccc12 | i | .
34 | COc1ccc(N)cc1 | i | .
35 | CCN(CC)CCCN=Cc1c(O)n(-c2cccc(C)c2C)c(=O)[nH]c1=O | i | >57
36 | CCCC(=O)Nc1ccc(N2CCN(CC)CC2)c(Cl)c1 | i | >57
37 | c1cnc(N2CC[C@@]3(CCCNC3)C2)nc1 | i | .
38 | COc1ccc2c(c1)[C@]13CCCC[C@@H]1[C@H](C2)N(C)CC3 | i | .
39 | Cc1ccc2occ(CN3CC4CC(C3)c3cccc(=O)n3C4)c(=O)c2c1 (stereo not drawn) | i | .
40 | CC(=NCCCN1CCOCC1)c1c(O)[nH]c(=O)[nH]c1=O | i | >57
41 | CN1CCC(c2c[nH]c3ccc(O)cc23)CC1 | i | .
42 | CN1CCN(C(=O)COc2ccc3ccccc3c2Br)CC1 | i | >57
43 | Oc1c(Cl)cccc1Cl | i | .
44 | O=C1CCCC2C3CCCN4CCCC(CN12)C34 (stereo not drawn) | i | >57
45 | Cn1ncnc2c(=O)n(C)c(=O)nc1-2 | i | >57
46 | CC(=O)OC1N=C(c2ccccc2)c2ccccc2NC1=O (stereo not drawn) | . | >26
47 | CN(C)CCN(C)CCc1ccc(Cl)c(Cl)c1 | i | .
48 | CCOc1ccccc1-n1c(O)c(C=NCc2ccc3c(c2)OCO3)c(=O)[nH]c1=O | i | >57
49 | Cc1ccc(C)c(NC(=O)CSc2nnc([C@@H](N)Cc3c[nH]c4ccccc34)o2)c1 | i | >57
50 | CN[C@@H]1C[C@@H](c2ccc(Cl)c(Cl)c2)c2ccccc21 | i | .
51 | Cl.Cl.Cl.Cl.Cl.Cl.N.N.N.N.NNNNN.NNNNN.O.O.[Ru].[Ru].[Ru] | 79µM* | .
52 | CC1=NN=C(c2ccc(N)cc2)c2cc3c(cc2C1)OCO3 | i | .
53 | COc1ccccc1N(CC(=O)NC1CCCCC1)C(=O)c1cnn(C(C)C)c1 | i | >57
54 | CCc1cccc2c(C#N)cn(CC(=O)N3CCOCC3)c12 | i | >57
55 | N#Cc1ccc(CN2CC[C@@]3(CCCNC3)C2)cc1 | i | .
56 | CCCCC/C=C\C/C=C\C/C=C\C/C=C\CCCC(=O)NCC(=O)O | i | .
57 | CC(C)n1cnc2c(C(=O)N[C@H]3CN4CCC3CC4)cc(Cl)cc21 | i | .
58 | O=c1ccc(=O)[nH][nH]1 | i | .
59 | COC(=O)[C@@]1(Cc2ccccc2)[C@H]2c3cc(C(=O)N(C)C)n(C)c3C[C@H]2CN1C(=O)c1ccccc1 | i | .
60 | CC(C)OC12Oc3ccccc3C=C1N1CCC2CC1 (stereo not drawn) | i | >57
61 | COc1ccc(OC)c(CN2CCN(C(=O)COc3cccc(C)c3)CC2)c1 | i | >57
62 | OCCBr | i | .
63 | COc1cccc(-c2nc(CS(=O)CC(=O)N3CCC4(CC3)OCCO4)c(C)o2)c1 (stereo not drawn) | i | >57
64 | CN[C@H](Cc1ccccc1)c1cccc(OC)c1O | i | .
65 | CCC1(CCSC(=N)N)C(=O)NC(=O)NC1=O | i | .
66 | Cc1ccc(-n2c(O)c(C=NC3CCCC3)c(=O)[nH]c2=O)c(C)c1 | i | >57
67 | CN1C(=O)COc2c(C(=O)N[C@@H]3CN4CCC3CC4)cc(Cl)cc21 | i | .
68 | O=C(C1CCN(S(=O)(=O)N2CCOCC2)CC1)N1CCC2(CC1)OCCO2 | i | >57
69 | CCCCn1c(O)c(C(CC)=NCCc2ccccc2)c(=O)[nH]c1=O | i | >57
70 | O=[N+]([O-])c1c2ccccc2cc2ccccc12 | i | .
71 | NCc1cc(=O)[nH]o1 | i | .
72 | Cn1c(=O)n(CC(=O)N2CCC3(CC2)OCCO3)c(=O)c2ccccc21 | i | >57
73 | Cc1ccc2c(c1)CC1(CN2C)C(=O)NC(=O)N(C(C)C)C1=O (stereo not drawn) | i | >57
74 | CCOC(=O)[C@]1(C#N)[C@@H]2C=CC(C(C)=O)=CN2[C@@H](C(N)=O)[C@@H]1c1ccsc1 | . | >26
75 | O=c1cccc2n1C[C@H]1C[C@@H]2CN(CCO)C1 | i | .
76 | COc1ccccc1-n1c(O)c(C=NCCCn2ccnc2)c(=O)[nH]c1=O | . | >26
77 | COc1cccc(N2C(=O)CC(=O)NC2=O)c1 | i | .
78 | COc1cccc(-n2c(O)c(C=NCCN3CCOCC3)c(=O)[nH]c2=O)c1 | . | >26
79 | Cn1cc(C(=O)N2CCC3(CC2)OCCO3)c2c3ccccc3n(C)c2c1=O | i | >57
80 | O=C1CSC2N1CCNC21CCCCC1 (stereo not drawn) | i | >57
81 | C[n+]1ccc(-c2ccncc2)cc1 | i | >57
82 | CC(C)OC(=O)Cc1ccccc1 | i | .
83 | COc1ccc(C[C@H]2c3cc(OC)c(OC)cc3CCN2C)cc1OC | i | .
84 | N[C@@H](Cc1c[nH]c2ccccc12)c1nnc(SCc2c(F)cccc2Cl)o1 | i | i
85 | O=c1c2ccccc2nc(-c2ccco2)n1-c1ccccn1 | i | .
86 | COc1ccc(C2SCC(=O)Nc3c2c(=O)[nH]n3C2CCCCCC2)cc1 (stereo not drawn) | . | >26
87 | CCOC(=O)C1=C(C)N(C)C2(C)CC1c1ccccc1O2 (stereo not drawn) | i | >57
88 | CC(C)(C)n1c(O)c(C=Nc2ccc3c(c2)CCC3)c(=O)[nH]c1=O | i | >57
89 | CCOP(=S)(OCC)Oc1cc(C)nc(C(C)C)n1 | i | .
90 | Oc1ccc(C2NCc3ccccc3-n3cccc32)cc1Cl (stereo not drawn) | i | >57

Additional compounds
No. | Compound | TsaE inh | Bst PK mod
91 | O=C(C1CCC(=O)N1C1CCCCC1)N1CCC2(CC1)OCCO2 (stereo not drawn) | i | >57
92 | CCOC(=O)c1c(C)n(Cc2ccco2)c2ccc(O)cc12 | i | >57
93 | C/C=C/C=O | i | .
94 | Clc1ccccc1Cl | i | .
95 | CCC(=NCCCN1CCOCC1)c1c(O)n(Cc2ccccc2)c(=O)[nH]c1=O | i | >57
96 | O=c1ccc2cc(O[C@H]3O[C@@H](CO)[C@@H](O)[C@@H](O)[C@@H]3O)c(O)cc2o1 | i | .
97 | Cc1cc(S(=O)(=O)NC(C)C)ccc1OCC(=O)N1CCN(Cc2ccc3c(c2)OCO3)CC1 | i | >57
98 | O=C1NC(=O)N(Cc2ccccc2Cl)C(=O)/C1=C/N1CCOCC1 | i | >57
99 | CCCC12CN3CN(C1)CC(CCC)(C3)C2O (stereo not drawn) | . | >26
100 | C=C1[C@@H](O)C2C=CC[C@H](C)C(=O)[C@@](C)(O)C=C[C@@H](OC(C)=O)[C@@]23C(=O)N[C@H](Cc2ccccc2)[C@@H]3[C@@H]1C (stereo partly drawn) | i | .
101 | CC[C@H]1CN2CC[C@@H]1C[C@H]2[C@@H](O)c1ccnc2ccc(OC)cc12 | i | .
102 | O=C(O)C(Br)Br | ? | .
103 | CC(C)CC(C)N (stereo not drawn) | i | .
104 | C[C@H]1CC[C@@]2(NC1)O[C@@H]1C[C@H]3[C@@H]4CC=C5C[C@@H](O)CC[C@]5(C)[C@@H]4CC[C@]3(C)[C@@H]1[C@@H]2C | i | .
105 | CN(C)C(=S)SSC(=S)N(C)C | i | .
106 | Cc1o[nH]c(=O)c1C[C@@H](N)C(=O)O | i | .
107 | Cc1c(N=Cc2c(O)n(CCc3ccccc3)c(=O)[nH]c2=O)c(=O)n(-c2ccccc2)n1C | . | >26
108 | CCOC(=O)C1CCN(/C=C2/C(=O)NC(=O)N(Cc3ccco3)C2=O)CC1 | i | .
109 | Nc1ccc(Cl)cc1 | i | .
110 | Cn1c(C(=O)N2CCC3(CC2)OCCO3)cc2c(=O)n(C)c3ccccc3c21 | i | >57
111 | Cc1ccc(CN2C(=O)NC(=O)C3(Cc4c(nc5ccccn5c4=O)N4CCCCCC43)C2=O)cc1 (stereo not drawn) | i | >57
112 | c1ccc(CN2CCC3(CCNCC3)CC2)cc1 | i | .
113 | C[C@]12C/C(=C/O)C(=O)C[C@@H]1CC[C@@H]1[C@@H]2CC[C@@]2(C)[C@H]1CC[C@]2(C)O | i | .
114 | N[C@@H](Cc1cc(Br)c(O)c(Br)c1)C(=O)O | i | .
115 | C[C@H]1CC[C@@]2(NC1)O[C@@H]1C[C@H]3[C@@H]4CC[C@@H]5C[C@@H](O)CC[C@@]5(C)[C@@H]4CC[C@]3(C)[C@@H]1[C@@H]2C | i | .
116 | NCCCN1CCN(c2ccccc2)CC1 | i | .
117 | Oc1ccc2c3c1O[C@@H]1[C@@H](O)CC[C@]4(O)[C@H](C2)N(CC2CCC2)CC[C@@]314 | i | .
118 | CCOc1ccc(N)cc1 | i | .
119 | COc1ccccc1N1CCN(C(CNC(=O)Oc2ccccc2)c2cccnc2)CC1 (stereo not drawn) | i | >57
120 | CSSC | i | .
121 | C[C@H]1C(=O)O[C@@H]2CCN3CC=C(COC(=O)[C@@](C)(O)[C@@]1(C)O)[C@H]23 | i | .
122 | CCCCCOC(=O)c1ccccc1C(=O)OCCCCC | i | .
123 | Cc1ccnc(-n2c(C)nc3ccccc3c2=O)c1 | i | .
124 | COC(=O)CN1CN(c2ccccc2)C2(CCN(Cc3ccc4ccccc4c3)CC2)C1=O | i | .
125 | N[C@@H](Cc1ccccc1)P(=O)(O)O | i | .
126 | C=C1CC[C@@]2(O)[C@H]3Cc4ccc(O)c5c4[C@@]2(CCN3CC2CC2)[C@H]1O5 | . | >26
127 | CC1=C(C(=O)OC(C)C)[C@]2(C(=O)N(CC(N)=O)c3ccccc32)C(C#N)=C(N)O1 | . | >26
128 | O=c1[nH]c(=O)n(CCc2ccc(F)cc2)c(O)c1C=NCCCn1ccnc1 | i | >57

Some of the compounds tested, so the mix of outcomes need not match the whole.
